Source: PubChem BioAssay (Southern Research Institute)
Mtb H37Rv = Mycobacterium tuberculosis H37Rv growth inhibition, cell based, confirmatory dose response (AID 1949); M. tuberculosis H37Rv growth inhibition; most inactive calls were filed without a number and no value below 0 was filed; inhibition, % at 10 µg/mL, or IC50 in µg/mL where a hit was titrated; actives 1.6% (n = 100,000);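 active = confirmed in a dose series; inconclusive = about 50% or more but not retested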;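 also: bacteria grown 7 days with compound before Alamar blue readout; 0% = untreated bacteria and 100% = reference antibiotic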
Active calls of the source: *; i = inactive; ? = inconclusive.

SMILES | Mtb H37Rv
C=CCn1c(=O)c2c(C)c(C)sc2n2c(Nc3ccc(OC)cc3)nnc12 | i
CC1CCCCN1C(=O)c1ccc(COc2ccccc2Br)cc1 (stereo not drawn) | 16%
Cc1cc(-n2nnc3ccccc32)nc2ccccc12 | 8%
COc1ccc(C(=O)N2CCC(N3CCCC3)CC2)cc1 | i
Cc1[nH][nH]c(=O)c1Sc1nc2ccccc2[nH]1 | i
Cc1cccc(C)c1N1CCN(CC(=O)Nc2ccc(Br)cc2)CC1 | ?
O=C(NNC(=O)c1ccc(Cl)cc1Cl)c1cccs1 | i
CCN(CC)CCNc1ncnc2sc3c(c12)CC(C)(C)OC3 | 1%
CCCCOc1cccc(C(=O)NNC(=S)NC2CCCCC2)c1 | i
COc1ccc(-c2c(C)oc3cc(OC(=O)c4ccccc4OC)ccc3c2=O)cc1OC | i
O=C(NC(=S)Nc1ccccc1Br)C1CC1 | i
Cc1cc(C=O)c(C)n1NC(=O)c1ccccc1 | i
O=C(Cn1cc(C(=O)C(=O)N2CCOCC2)c2ccccc21)Nc1cccc(C(F)(F)F)c1 | i
CCCC(C)NC(=O)c1cc(-c2ccccc2)nc2ccccc12 (stereo not drawn) | 0%
CCCCOCCCNC(=O)CN1C(=O)c2ccccc2C1=O | i
CCCS(=O)(=O)N1CCN(Cc2ccc(OC)c(OCC)c2)CC1 | i
O=C(COc1ccc(Br)cc1)Nc1ccccc1C(=O)O | 12%
COc1ccc(C)cc1S(=O)(=O)N1CCCC(C(N)=O)C1 (stereo not drawn) | i
CCOC(=O)c1ccc(NC(=O)C2CC=CCC2(C)C(=O)O)cc1 (stereo not drawn) | 12%
COc1ccc(C(C)NC(=O)C2c3ccccc3Oc3ccccc32)cc1OC (stereo not drawn) | i
CCCCn1nnc(NC(=O)c2ccccc2F)n1 | i
COC(=O)c1ccc(-n2nnnc2SCCCC(=O)c2ccc(F)cc2)cc1 | i
CC1CN(C(=O)C2CCCCC2)C(C)CN1C(=O)C1CCCCC1 (stereo not drawn) | i
CCOc1cc(/C=C2/C(=O)NC(=O)N(c3ccc(C)c(Cl)c3)C2=O)ccc1OC(=O)c1ccco1 | 3%
COc1ccc(C(=O)Nc2ccc(F)c(Cl)c2)cc1 | 7%
COc1ccc(-n2c(SCC(=O)O)nnc2-c2cccs2)cc1 | i
CCc1cc(C(=O)O)c(NC(=O)c2cccc(C)c2)s1 | i
C=CCOc1ccc(CNCc2ccccc2)cc1OC | i
CCOC(=O)c1cc(-c2ccccc2)sc1NC(=S)NCc1ccc(S(N)(=O)=O)cc1 | i
CCCCSc1nc(C)cc(-c2ccccc2)c1C#N | 32%
Cc1ccc(C(=O)N2CCC(C(=O)N3CCC(Cc4ccccc4)CC3)CC2)cc1 | 6%
CC(C)NS(=O)(=O)c1ccc(OCC(=O)NCc2ccncc2)cc1 | 2%
COC(=O)C1C(c2ccccc2)C(C(=O)O)C1c1ccccc1 (stereo not drawn) | i
C=CCNC(=O)c1ccccc1NC(=O)c1ccc(CN(c2ccc(C)c(C)c2)S(C)(=O)=O)cc1 | i
Cc1ccc(N(Cc2cc3ccccc3[nH]c2=O)C(=O)c2cccnc2)cc1 | 4%
Cc1cc(C)c2c(N)c(C(=O)Nc3ccc(S(N)(=O)=O)cc3)sc2n1 | i
COc1ccc(-c2cc(C(=O)N/N=C\c3cc(OC)c(OC)c(OC)c3)[nH]n2)cc1 | 24%
COc1ccc(C(=O)Nc2ccc3nc(SCC(=O)Nc4ccccc4C(F)(F)F)sc3c2)cc1OC | i
Cc1c(Cl)cccc1NC(=O)CSc1nnc(CNC(=O)c2ccccc2F)n1C | i
CCc1c(C)c2ccc(OCC(=O)N(C)C)c(C)c2oc1=O | i
Cc1ccc(C(=O)Nc2ccc([N+](=O)[O-])cc2)s1 | <0.1µg/mL*
Cc1cccc(C(=O)Nc2cccc(Br)c2)c1[N+](=O)[O-] | i
COc1ccccc1NC(=O)CN(c1ccccc1Cl)S(=O)(=O)c1ccc(C)cc1 | i
CC(C)CCSc1nc(-c2cccs2)ccc1C#N | 8%
COc1ccc(-c2csc(NC3=NS(=O)(=O)c4ccccc43)n2)cc1OC | i
O=C1N(c2ccccc2)NC(c2ccco2)C12CCCCC2 (stereo not drawn) | 7%
COc1ccc(C(=O)Nc2cccc(C)c2C)cc1 | 5%
CC(C)(C)C(=O)Oc1ccc2c(=O)c(Oc3ccc4ccccc4c3)coc2c1 | i
O=C(COc1ccc(S(=O)(=O)Nc2ccc(Cl)cc2)cc1)NCc1ccccn1 | i
S=C(Nc1ccc2nsnc2c1)N1CCOCC1 | i
COc1ccc(CCNC2CC(=O)N(c3ccc(Cl)cc3)C2=O)cc1 (stereo not drawn) | 0%
Cc1ccc(C(=O)Nc2ccc(S(=O)(=O)N3CCCC3)cc2)cc1C | i
Cc1ccc(NC(=O)CSc2ccc(Nc3ccc(C)cc3)nn2)cc1 | i
CCCC(=O)Nc1ccc(C(=O)N2CCN(c3ccc([N+](=O)[O-])cc3)CC2)cc1 | i
COc1cc(C#N)cc(I)c1OCc1cccc(F)c1 | i
CC(C)(C)c1ccc(-c2n[nH]c(=S)n2-c2ccc(F)cc2)cc1 | 1%
COC(C(=O)Nc1c(F)cccc1F)c1ccccc1 (stereo not drawn) | i
COC(=O)C1=C(C)NC(=S)NC1c1cc([N+](=O)[O-])ccc1OC (stereo not drawn) | i
O=C(C1COc2ccccc2O1)N1CCN(c2ccccc2)CC1 (stereo not drawn) | 5%
COc1cccc(NC(=O)CN(Cc2ccc(Cl)cc2)S(=O)(=O)c2ccc(Cl)cc2)c1 | i
(cont.)
SMILES | Mtb H37Rv
CCC(=O)Nc1ccc(C(=O)Nc2ccc(OCC(=O)O)cc2)cc1 | i
Cc1c(Cl)cccc1NC(=O)C(=O)NCc1cccs1 | i
Cc1cc(Cl)ccc1NC(=O)C1CCN(C(=O)c2ccc(F)cc2)CC1 | i
CS(=O)(=O)N(CC(=O)Nc1ccccc1C(=O)NC1CCCCC1)c1ccccc1F | i
NS(=O)(=O)c1ccc(NC(=S)Nc2ccccc2C(=O)c2ccccc2)cc1 | i
C=CCn1c(SCC(=O)N2CCOCC2)nnc1-c1ccc([N+](=O)[O-])cc1 | i
CCc1cccc(CC)c1NC(=O)c1cccc(N)c1 | i
CCc1cccc(CC)c1NC(=O)c1cc(OC)c(OC)c(OC)c1 | i
CCOc1ccc(S(=O)(=O)N2CCN(c3ccccc3CC)CC2)c2ccccc12 | 3%
CCOc1cc(C(=S)N2CC(C)OC(C)C2)ccc1O (stereo not drawn) | i
CC(C)(C)NC(=O)c1ccc(NC(=O)c2ccco2)cc1 | i
CCCC(=O)Nc1ccc(C(=O)Nc2ccc(NC(C)=O)cc2)cc1 | i
CS(=O)(=O)N(CC(O)Cn1c2ccccc2c2ccccc21)c1ccccc1I (stereo not drawn) | 15%
CS(=O)(=O)N(CC(=O)Nc1ccccc1C(=O)NCc1ccco1)c1ccccc1Br | i
O=C(Cn1nnc(-c2ccc(F)cc2)n1)Nc1ccc(I)cc1 | 1%

The last 3 compounds of the section above come first, to join the parts.
SMILES | Mtb H37Rv
CS(=O)(=O)N(CC(O)Cn1c2ccccc2c2ccccc21)c1ccccc1I (stereo not drawn) | 15%
CS(=O)(=O)N(CC(=O)Nc1ccccc1C(=O)NCc1ccco1)c1ccccc1Br | i
O=C(Cn1nnc(-c2ccc(F)cc2)n1)Nc1ccc(I)cc1 | 1%
O=C1c2ccccc2C(=O)N1CCOCc1ccc(Cl)cc1 | 5%
CSc1ccccc1NC(=O)CSc1ccc(C)cc1 | i
COc1cc(C(=O)NC(=S)Nc2ccc(C(=O)O)cc2)cc(OC)c1OC | i
Cc1ccccc1CN1C(=O)C(O)(CC(=O)c2ccc(Cl)s2)c2cc(Cl)ccc21 (stereo not drawn) | 13%
O=C(NCc1ccc(Cl)cc1)C(=O)Nc1cc(Cl)cc(Cl)c1 | 0%
CCc1ccc(CCC(=O)Nc2ncc(Cc3ccccc3Cl)s2)o1 | i
COc1ccc(CC(=O)NNC(=O)CSc2ccc(C)cc2)cc1 | i
COc1cc2c(cc1OC)CN(C(=O)CSc1nc(-c3cccnc3)ccc1C#N)CC2 | i
CS(=O)(=O)N(CC(=O)Nc1cccc(F)c1)c1ccccc1F | i
O=C(CSc1nnc(-c2ccncc2)n1-c1ccccc1)Nc1ccc(OC(F)(F)F)cc1 | i
Cc1cccc(C)c1OCCCCn1cnc2ccccc2c1=O | i
COC(=O)c1cccc(NS(C)(=O)=O)c1C | i
O=C(CN(c1ccc(F)cc1)S(=O)(=O)c1ccc2c(c1)OCCO2)Nc1ccccc1Cl | i
COc1ccc(S(=O)(=O)N(CC(=O)Nc2ccc(Cl)c(Cl)c2)c2ccccc2)cc1OC | 17%
O=C(NCc1ccncc1)Nc1cccc(Cl)c1 | i
COC(=O)c1ccccc1NC(=O)c1ccc(NC(=O)C2CCCO2)cc1 (stereo not drawn) | i
COc1ccc(-c2cc(C(=O)Nc3ccc4c(c3)OCO4)c3ccccc3n2)c(OC)c1 | i
Cc1ccc(C(=O)NC(C)c2ccccc2)cc1Cl (stereo not drawn) | i
CN(CCOc1ccc(Cl)cc1)C1CCCCC1 | i
CCOC(=O)c1c(NC(=O)c2sc3ccccc3c2Cl)sc2c1CCC2 | i
Cc1[nH]n(-c2ccccc2)c(=O)c1C1(C(F)(F)F)C(=O)N(c2ccccc2)C2=C1C(=O)CC(C)(C)C2 (stereo not drawn) | i
Cc1cccc2sc(NC(=O)c3ccccc3F)nc12 | i
O=C(NC(=O)c1ccccc1)Nc1cccc(F)c1 | i
O=C(c1cccnc1)N1CCN(Cc2ccc(F)cc2)CC1 | i
COc1ccc(C2CC(=O)C3=C(C2)Nc2ccccc2NC3c2cccs2)cc1OC (stereo not drawn) | i
Cc1ccc(NC(=O)CC2Sc3ccc(C(F)(F)F)cc3NC2=O)cc1C (stereo not drawn) | i
CCn1c(CNC(=O)c2ccccc2C)nnc1SCC(=O)N1CCN(c2ccccc2)CC1 | i
COc1ccc2oc(=O)c(C(=O)Nc3c(C)n(C)n(-c4ccccc4)c3=O)cc2c1 | i
CN1CCN(NC(=O)c2ccccc2CCc2ccccc2)CC1 | i
Cc1ccc(SCC(=O)NNC(=O)C2CCCCC2)cc1 | i
COc1ccc(Cl)cc1NC(=O)Cc1ccc(Br)cc1 | i
COC(=O)c1cccc(NC(=O)CSc2n[nH]c(Cc3ccccc3)n2)c1 | i
CN1CCN(S(=O)(=O)c2ccc(Br)c3ccccc23)CC1 | i
CS(=O)(=O)N(CCc1ccccc1)CC(=O)NCc1ccco1 | i
COc1ccc(C2CC(=O)Nc3cc4c(cc32)OCO4)cc1 (stereo not drawn) | i
COc1ccc(C(=O)Nc2ccc(C(=O)Nc3ccc(C)cc3)cc2)cc1 | i
CC(=O)Nc1ccccc1NC(=O)CCC1CCCC1 | i
CC(=O)Nc1ccccc1NC(=O)c1ccc2c(c1)OCO2 | i
COc1ccccc1NC(=O)C1=C(C)Nc2ncnn2C1c1cc(Br)c(O)c(OC)c1 (stereo not drawn) | i
O=C(CC1(O)C(=O)N(Cc2cccc(F)c2)c2ccccc21)c1ccc(Br)cc1 (stereo not drawn) | i
Cc1ccc(NC(=O)C(Sc2ccccc2)c2ccccc2)c([N+](=O)[O-])c1 (stereo not drawn) | i
CCc1ccccc1NC(=O)CN(Cc1ccccc1)S(=O)(=O)c1ccc(OC)cc1 | 4%
Cc1c(NC(=S)NC(=O)COc2ccccc2)cccc1-c1nc2ccccc2s1 | i
O=C(O)c1ccc(NCc2ccccc2)cc1 | 4%
COC(=O)CC1C(=O)NCCN1C(=S)Nc1cccc(C)c1 (stereo not drawn) | 4%
Cc1ccc(S(=O)(=O)N(C)c2ccc(C(=O)N3CCc4ccccc4C3)cc2)cc1 | 1%
O=C(CN1CCN(Cc2ccccc2)CC1)Nc1ccc([N+](=O)[O-])cc1C(=O)c1ccccc1 | 2.8µg/mL*
Cc1c(Cc2ccccc2)c(=O)oc2cc(OCC(=O)O)c(Cl)cc12 | i
CCOc1ccccc1N1CCN(Cc2cccc(Br)c2)CC1 | 8%
O=C(NC1(C(F)(F)F)NC(=O)N(c2ccc(F)cc2)C1=O)c1ccco1 (stereo not drawn) | i
Cc1cc(C)c(NC(=O)CN2C(=O)c3cccc4cccc2c34)c(C)c1 | i
Cc1ccc2c(c1)CCCN2C(=O)Cc1cccs1 | i
Cc1cc(Cl)ccc1OCCCC(=O)NCc1ccccc1Cl | i
Cc1cccc(C)c1N(CC(=O)N1CCOCC1)S(C)(=O)=O | i
CCC(=O)c1ccc(N2CCN(C(=O)c3cc([N+](=O)[O-])ccc3N3CCN(C)CC3)CC2)c(F)c1 | i
O=C(CN1CCN(Cc2ccccc2)CC1)Nc1ccc(Br)cn1 | i
N#Cc1ccccc1NC(=O)c1cc(I)ccc1Cl | i
CCn1c(Cc2ccccc2)nnc1SCc1ccc([N+](=O)[O-])cc1 | i
O=C(Nc1ccccc1Cl)c1c(F)c(F)c(F)c(F)c1F | 36%
CCNC(=S)NS(=O)(=O)c1ccc(F)cc1 | i
CSc1ccc(CNc2ccc(N3CCOCC3)cc2)cc1 | i

Some of these compounds in order of heavy-atom count, descending.
SMILES | Mtb H37Rv
COc1ccc(C(=O)Nc2ccc3nc(SCC(=O)Nc4ccccc4C(F)(F)F)sc3c2)cc1OC | i
CCn1c(CNC(=O)c2ccccc2C)nnc1SCC(=O)N1CCN(c2ccccc2)CC1 | i
Cc1ccc(N(Cc2cc3ccccc3[nH]c2=O)C(=O)c2cccnc2)cc1 | 4%
COc1cc(C#N)cc(I)c1OCc1cccc(F)c1 | i

Another view of some results above.
O=C(CN1CCN(Cc2ccccc2)CC1)Nc1ccc([N+](=O)[O-])cc1C(=O)c1ccccc1
  Mtb H37Rv = 2.8µg/mL*
Cc1c(Cc2ccccc2)c(=O)oc2cc(OCC(=O)O)c(Cl)cc12
  Mtb H37Rv = i
CCOc1ccccc1N1CCN(Cc2cccc(Br)c2)CC1
  Mtb H37Rv = 8%
O=C(NC1(C(F)(F)F)NC(=O)N(c2ccc(F)cc2)C1=O)c1ccco1 (stereo not drawn)
  Mtb H37Rv = i

This is a subset; count on the stated rates, not on these rows.
